Screens: PubChem, The Scripps Research Institute Molecular Screening Center
LYPLA1 counter – LYPLA1 (human) inhibition in PME1 counter-screen; inhibition, % at 5.9 µM; O75608; recombinant LYPLA1, FP-Rh probe fluorescence polarization; 320,000 compounds, 0.16% hits;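 active = inhibition above the mean of all tested compounds plus 3 SD, set per campaign, cut at about 14% in these data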;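 note: inhibitors block serine hydrolase probe labeling of LYPLA1 so polarization falls; 0% = enzyme with DMSO and 100% = wells lacking LYPLA1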
PAFAH1B2 inh – inhibitors of human PAFAH1B2 | recombinant PAFAH1B2, FP-rhodamine activity probe, fluorescence polarization | inhibition, % at 3.39 µM | 340,000 compounds, 1.2% hits;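 active = inhibition above the mean of all tested compounds plus 3 SD, cut at about 24% in these data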;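 note: 0% = enzyme with DMSO and 100% = wells lacking PAFAH1B2; many of its hits are not listed in these tables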
pPAFAH inh – pPAFAH (human) enzyme inhibition | recombinant pPAFAH, FP-rhodamine probe fluorescence polarization | 330,000 compounds, 1.5% hits | inhibition, % at 3.39 µM;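 active = inhibition above the mean inhibition across the screen plus 3 SD, cut at about 25% in these data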;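 note: inhibitors block binding of the rhodamine activity-based probe so polarization drops; 0% = enzyme with DMSO and 100% = wells lacking pPAFAH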
PME-1 inh – blocks human protein phosphatase methylesterase 1; Q9Y570; recombinant PME-1, FP-Rh probe fluorescence polarization; inhibition, % at 5.9 µM; 320,000 compounds, 0.53% hits; AID 2130;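 active = inhibition above the campaign mean of all compounds plus 3 SD, cut at about 26% in these data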;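 note: competitive labeling of PME-1 active site by serine hydrolase directed probe; 0% = PME-1 with DMSO and 100% = wells lacking PME-1 enzyme; inhibitors block probe labeling so polarization falls and inhibition rises; many of its hits are not listed in these tables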
Target sequence (Q9Y570 whole entry, looked up): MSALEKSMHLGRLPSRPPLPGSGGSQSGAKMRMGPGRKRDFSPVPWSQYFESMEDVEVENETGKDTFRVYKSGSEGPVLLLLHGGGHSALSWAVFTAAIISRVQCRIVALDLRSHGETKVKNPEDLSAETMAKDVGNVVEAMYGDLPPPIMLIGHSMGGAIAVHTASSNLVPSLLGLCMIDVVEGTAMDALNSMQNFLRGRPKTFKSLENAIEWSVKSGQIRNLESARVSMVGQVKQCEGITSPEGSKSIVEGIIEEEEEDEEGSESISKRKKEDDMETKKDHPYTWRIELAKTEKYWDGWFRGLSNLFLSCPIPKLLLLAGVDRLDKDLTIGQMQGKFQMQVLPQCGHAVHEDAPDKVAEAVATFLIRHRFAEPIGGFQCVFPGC
PAD4 FP inh – blocks human protein arginine deiminase 4; Q9UM07; recombinant PAD4, RCA probe fluorescence polarization; inhibition, % at 6.36 µM; 330,000 compounds, 0.41% hits;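 active = percent inhibition above a cutoff equal to the mean of all tested compounds plus 3 SD, cut at about 15% in these data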;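 note: 0% = PAD4 with RCA probe and DMSO and 100% = probe without PAD4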
LYPLA2 counter – counter-screen for PME1 inhibitors: inhibitors of human LYPLA2; O95372; recombinant LYPLA2, FP-Rh probe fluorescence polarization; inhibition, % at 5.9 µM; 320,000 compounds, 0.38% hits; AID 2177;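 active = inhibition above the screen-wide mean plus 3 SD, limit set per campaign, cut at about 26% in these data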;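 note: 0% = LYPLA2 with DMSO and 100% = wells lacking LYPLA2 enzyme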
Target sequence (O95372 whole entry, looked up): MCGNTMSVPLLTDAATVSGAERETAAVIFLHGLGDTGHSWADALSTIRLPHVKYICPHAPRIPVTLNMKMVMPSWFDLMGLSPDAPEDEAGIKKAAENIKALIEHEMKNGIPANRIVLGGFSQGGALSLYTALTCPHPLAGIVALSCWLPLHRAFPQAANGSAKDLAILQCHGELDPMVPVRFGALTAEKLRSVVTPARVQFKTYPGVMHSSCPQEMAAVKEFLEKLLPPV
PAFAH1B3 inh – blocks human PAF acetylhydrolase 1B catalytic subunit 3; Q15102; recombinant PAFAH1B3, FP-rhodamine probe, fluorescence polarization; inhibition, % at 3.39 µM; 340,000 compounds, 0.28% hits; AID 492972;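 active = inhibition above the screen-wide average of all tested compounds plus 3 SD, cut at about 25% in these data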;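 note: 0% = enzyme with DMSO only and 100% = wells lacking PAFAH1B3 protein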
Target sequence (Q15102 whole entry, looked up): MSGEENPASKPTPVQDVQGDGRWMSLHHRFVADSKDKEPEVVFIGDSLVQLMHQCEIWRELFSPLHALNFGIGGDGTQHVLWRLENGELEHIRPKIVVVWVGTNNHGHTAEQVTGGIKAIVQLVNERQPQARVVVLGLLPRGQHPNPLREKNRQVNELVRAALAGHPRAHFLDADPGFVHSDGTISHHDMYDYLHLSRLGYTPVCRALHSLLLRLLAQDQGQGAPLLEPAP
PREPL inh – inhibits the human prolyl oligopeptidase-like enzyme | recombinant PREPL, fluorescence polarization activity-based probe | inhibition, % at 5.96 µM | 320,000 compounds, 0.68% hits | AID 2751; in the data active = inhibition above about 43%;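 note: 0% = enzyme with DMSO and 100% = wells lacking enzyme; many of its hits are not listed in these tables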
Numbers without * were called inactive; . = no result given.

SMILES | LYPLA1 counter | PAFAH1B2 inh | pPAFAH inh | PME-1 inh | PAD4 FP inh | LYPLA2 counter | PAFAH1B3 inh | PREPL inh
O=C(Nc1ccnn1C1CCN(Cc2cccc(OCCO)c2)CC1)c1cccc(F)c1 | -1.7 | -3.3 | 3.0 | -0.8 | 0.7 | -5.6 | -1.5 | 7.9
Cc1cccc(-n2nnc(C(=O)N3CCc4ccccc4C3)c2N)c1 | -6.1 | 9.3 | -1.8 | -0.1 | 0.8 | -2.6 | 6.3 | -15.1
O=C(CCl)Nc1ccc(S(=O)(=O)Nc2nccs2)cc1 | -0.1 | -4.4 | 14.2 | -4.2 | -4.9 | -4.3 | 3.8 | 3.3
COc1ccc(OC)c(Nc2nc(N)nc(CCl)n2)c1 | -1.0 | 1.8 | 6.8 | 2.4 | -4.9 | 0.6 | 1.6 | 0.9
CCOc1ccc(NS(=O)(=O)c2ccc3[nH]c(=O)cc(C(=O)O)c3c2)cc1 | 0.2 | 2.8 | 17.6 | 1.1 | -3.5 | 5.7 | 3.7 | 4.7
CCOc1ccc(CCNC(=O)c2ccc3c(c2)NC(=O)C2CCCN32)cc1OCC (stereo not given) | -11.9 | . | 4.2 | -5.5 | -2.8 | -15.0 | . | 1.0
COc1ccc(COn2nnc3ccc(S(=O)(=O)N4CCOCC4)cc32)cc1F | 1.3 | 0.3 | 2.1 | 0.2 | -4.4 | 3.7 | 7.5 | 0.0
O=C(CCl)Nc1cccc(Oc2cnccn2)c1 | -0.8 | -7.7 | 5.1 | 6.9 | -6.0 | 6.5 | 4.9 | -0.1
COc1cc2c(cc1OC)C(C)N(S(=O)(=O)c1cnc(Cl)c(Cl)c1)CC2 (stereo not given) | 2.6 | 2.8 | 0.3 | 1.8 | -0.6 | 6.8 | 8.3 | 12.8
CCc1ccc(NS(=O)(=O)c2cc3[nH]c(=O)c(=O)[nH]c3cc2C)cc1 | -2.3 | 20.6 | 5.9 | 1.4 | -4.0 | -5.7 | 4.7 | 2.8
CCSc1nnc(NC(=O)CSc2nc3c(c(=O)n2CC)SC(C)C3)s1 (stereo not given) | 1.1 | -0.5 | -2.0 | -0.2 | -4.0 | 2.2 | 2.6 | -4.1
COc1ccc2c(c1)OC(O)(C(F)F)CC2=O (stereo not given) | 1.5 | -0.3 | 6.8 | 4.2 | 3.8 | 1.1 | -1.4 | -4.3
CCc1nnc(NC(=O)CSc2nc3cc(OC)ccc3cc2C)s1 | 0.4 | 7.2 | -0.8 | 1.9 | -2.5 | 1.7 | 4.4 | 22.4
COC(=O)c1ccc2c(=O)[nH]c(CSc3nnc(C(F)(F)F)n3C)nc2c1 | 0.5 | 0.7 | 2.0 | 3.5 | -3.0 | 1.9 | -1.3 | 5.1
O=C(CCl)NCCCCCCCCCNC(=O)CCl | 0.0 | 0.0 | -4.4 | -1.4 | 4.0 | -1.3 | -3.7 | 1.6

Record cards, from the list above.
CCSc1nnc(NC(=O)CSc2nc3c(c(=O)n2CC)SC(C)C3)s1 (stereo not given) is entered as LYPLA1 counter = 1.1; PAFAH1B2 inh = -0.5; pPAFAH inh = -2.0; PME-1 inh = -0.2; PAD4 FP inh = -4.0; LYPLA2 counter = 2.2; PAFAH1B3 inh = 2.6; PREPL inh = -4.1
O=C(Nc1ccnn1C1CCN(Cc2cccc(OCCO)c2)CC1)c1cccc(F)c1 is entered as LYPLA1 counter = -1.7; PAFAH1B2 inh = -3.3; pPAFAH inh = 3.0; PME-1 inh = -0.8; PAD4 FP inh = 0.7; LYPLA2 counter = -5.6; PAFAH1B3 inh = -1.5; PREPL inh = 7.9
COc1ccc2c(c1)OC(O)(C(F)F)CC2=O (stereo not given) is entered as LYPLA1 counter = 1.5; PAFAH1B2 inh = -0.3; pPAFAH inh = 6.8; PME-1 inh = 4.2; PAD4 FP inh = 3.8; LYPLA2 counter = 1.1; PAFAH1B3 inh = -1.4; PREPL inh = -4.3

Back to the main list, repeating the three entries before the break.
SMILES | LYPLA1 counter | PAFAH1B2 inh | pPAFAH inh | PME-1 inh | PAD4 FP inh | LYPLA2 counter | PAFAH1B3 inh | PREPL inh
CCc1nnc(NC(=O)CSc2nc3cc(OC)ccc3cc2C)s1 | 0.4 | 7.2 | -0.8 | 1.9 | -2.5 | 1.7 | 4.4 | 22.4
COC(=O)c1ccc2c(=O)[nH]c(CSc3nnc(C(F)(F)F)n3C)nc2c1 | 0.5 | 0.7 | 2.0 | 3.5 | -3.0 | 1.9 | -1.3 | 5.1
O=C(CCl)NCCCCCCCCCNC(=O)CCl | 0.0 | 0.0 | -4.4 | -1.4 | 4.0 | -1.3 | -3.7 | 1.6
CCn1c(COc2ccc(C(C)C)cc2)nnc1SCC(=O)Nc1nccs1 | -6.4 | 3.4 | 2.0 | 1.6 | -1.2 | 1.1 | 4.6 | 5.6
CCN(CC)c1nc(-c2cccc(OC)c2O)nc2ccccc12 | -3.7 | 7.5 | -0.8 | 6.0 | 1.2 | 1.5 | 2.2 | 9.2
CC(C)Cc1nnc(NC(=O)CSc2nc(=O)cc(N)n2-c2ccccc2)s1 | -2.1 | 5.5 | 8.6 | 2.9 | -2.6 | 2.3 | 1.9 | 7.1
Cc1nnc(SCC(=O)c2ccc(C(C)C)cc2)s1 | 1.0 | 5.4 | -1.0 | -5.1 | 2.5 | 7.4 | 14.6 | -1.3
Cc1ccc(C(=O)COC(=O)CN2C(=O)C3C4CC(C(Br)C4Br)C3C2=O)cc1 (stereo not given) | -2.9 | 8.8 | 4.4 | -3.0 | -5.8 | 2.6 | 6.6 | 0.5
CN1CCc2c(sc3c2c(=O)n(-c2ccccc2)c2nnc(SCc4ccc(Cl)cc4)n32)C1 | -5.0 | 7.2 | 6.2 | -0.1 | -0.4 | 0.8 | -8.8 | 25.1
O=C(COC(=O)c1cc([N+](=O)[O-])ccc1NCCO)Nc1cccc(S(=O)(=O)N2CCCC2)c1 | -5.8 | -1.8 | 4.2 | 16.4 | 1.1 | -8.1 | 8.2 | 0.4
Cc1ccccc1NS(=O)(=O)c1ccc2c(c1)NC(=O)CCS2 | -2.5 | 0.3 | 10.2 | 3.0 | -0.1 | -5.0 | -0.7 | -1.5
O=C(O)c1cn(-c2ccc(F)c(F)c2)c2c(F)c(F)c(F)c(F)c2c1=O | -1.9 | 2.7 | -5.5 | 1.5 | 1.3 | -3.6 | 3.2 | 3.1
Cc1ccc2nsnc2c1NC(=O)CCl | -1.2 | -3.0 | 3.6 | 2.8 | 4.1 | -4.1 | 8.1 | 1.5
CCCc1cc(=O)[nH]c(SC(CC)C(=O)Nc2ccccc2C#N)n1 (stereo not given) | 1.2 | 3.8 | -1.7 | 0.9 | 1.1 | 1.5 | 3.5 | 9.6
Cc1cc(C(=O)COC(=O)c2cccnc2Cl)c(C)n1-c1c(C)n(C)n(-c2ccccc2)c1=O | -7.6 | -1.7 | -6.7 | 7.3 | 1.5 | -2.2 | -7.5 | 7.0
O=[N+]([O-])c1cc([N+](=O)[O-])c(Oc2cccnc2Br)cc1NN1CCCCC1 | -0.5 | 6.5 | 2.2 | 11.8 | 0.9 | 1.8 | 5.8 | 2.8
CCCCc1nnc(NC(=O)CSc2nc(C)cc(=O)[nH]2)s1 | -1.9 | -0.1 | 0.1 | 1.0 | -1.2 | 2.0 | 2.0 | -3.2
COc1cc(Cl)c(NS(=O)(=O)c2cc3[nH]c(=O)c(=O)[nH]c3cc2C)c(OC)c1 | 2.2 | 6.1 | 4.1 | 1.2 | -4.0 | 7.1 | 8.9 | 25.9
Cc1ccc(C(=O)CSc2nnc(-c3ccccc3)o2)cc1 | 5.1 | 5.5 | -2.3 | -0.6 | 0.5 | 5.8 | 11.1 | -5.8
O=C(CSCc1ccc(Br)cc1)N1CCOCC1 | -0.5 | 26.3* | 4.7 | 8.6 | 4.0 | 0.7 | 2.8 | 1.3
O=[N+]([O-])C(=C1Nc2ccccc2N1)/C(Cl)=C(/Cl)Br | -3.5 | 3.3 | -0.7 | 4.7 | -3.0 | 1.8 | 0.8 | -1.4
N#Cc1c(N)n(CCNC(=O)c2ccc(Cl)cc2)c2nc3ccccc3nc12 | -7.8 | 8.2 | -5.8 | -1.5 | -9.3 | -6.5 | 0.5 | -3.4
O=C1C(Cl)=C(N2CCCCCC2)C(=O)N1c1ccc(Br)cc1 | -5.1 | 4.0 | 2.2 | -3.7 | 1.0 | -5.5 | 7.1 | 8.5
O=[N+]([O-])/C(C(Cl)=C(Cl)Cl)=C1\Nc2ccccc2O1 | -2.3 | 6.2 | 4.9 | 2.2 | -5.2 | -4.2 | 4.8 | -3.2
CCCC(=O)Nc1nc2c(s1)COc1ccccc1-2 | -0.7 | 4.2 | -3.4 | -0.4 | 1.7 | 3.3 | -7.8 | 18.5
CC1=C(C(=O)OC(C)C)C2(O)C(=O)c3ccccc3C2(O)N1 (stereo not given) | 3.0 | 1.0 | 1.0 | -1.6 | 0.7 | 4.5 | 0.3 | 0.4
CC(Nc1[nH]c(=O)n(C)c(=O)c1N=O)c1ccccc1 (stereo not given) | -1.4 | 8.0 | 8.6 | -2.6 | -2.8 | 2.7 | -1.3 | 0.0
CC(=O)Oc1c(Br)cc(N(C(C)=O)S(=O)(=O)c2ccccc2)c2ccccc12 | -3.1 | 3.8 | 8.9 | 21.2 | -2.3 | 6.9 | 13.4 | 5.8
CC1=NN(c2nc(-c3ccc(C#N)cc3)cs2)C(=O)C1 | -4.1 | . | -0.7 | 0.3 | -4.8 | -0.5 | . | -3.6
COc1ccc(Nc2oc(-c3cccs3)nc2C#N)cc1 | 1.8 | -2.7 | 3.7 | 5.4 | -5.1 | 2.1 | 6.6 | 11.0
COc1ccc(NS(=O)(=O)c2ccc3c(c2)NC(=O)CO3)cc1 | -0.1 | 13.2 | 2.3 | -0.9 | -1.1 | -8.4 | 3.3 | -7.7
Cc1ccc(NS(=O)(=O)c2cccc(C(=O)O)c2)cc1S(=O)(=O)N1CCCCC1 | 3.0 | 3.6 | 1.4 | 4.2 | -1.4 | 3.9 | 11.1 | -6.0
O=C(CCCl)Nc1nc2c(s1)CCc1ccccc1-2 | -2.5 | 3.5 | 2.0 | -1.1 | -2.5 | -9.5 | 6.8 | 6.1
CCc1nnc(NC(=O)CSc2ccc(-c3ccccc3OC)nn2)s1 | -0.2 | -0.1 | 8.8 | 6.0 | 1.5 | 1.0 | 4.9 | -12.2
CC(C)(C)OC(=O)NCCc1nnc(SCC(=O)c2ccc(Cl)cc2)o1 | -2.4 | 4.0 | 3.7 | 2.9 | 3.3 | 4.2 | 10.9 | 1.7
CCc1ccc(C(=O)COC(=O)CNC(=O)COc2ccccc2)cc1 | -1.9 | 3.4 | 8.0 | -4.6 | 6.8 | -5.6 | -1.4 | -19.2
O=C(CN1CCN(S(=O)(=O)c2ccc(Br)cc2)CC1)Nc1ccc(F)cc1 | -1.5 | 28.2* | -1.6 | -2.4 | -0.8 | 0.1 | 0.8 | -40.1
CC(C)c1ccc(NS(=O)(=O)c2ccc3c(c2)NC(=O)CO3)cc1 | -4.3 | 7.8 | 13.2 | -1.7 | -2.5 | -1.7 | 0.4 | -1.0
Nc1cc(=O)[nH]c(SCC(=O)Nc2ccccc2Sc2ccccc2)n1 | -1.8 | 2.1 | 5.1 | 4.7 | 4.4 | 3.0 | -4.3 | 1.5

Some of the compounds tested. The share of hits here may be higher or lower than overall.
